Screening results: PubChem, Southern Research Institute
Mtb growth – Mycobacterium tuberculosis H37Rv growth inhibition, cell based, confirmatory dose response (AID 1949). most inactive calls were filed without a number and no value below 0 was filed. inhibition, % at 10 µg/mL, or IC50 in µg/mL where a hit was titrated. hit rate 1.6% among 100,000;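 active means confirmed in a dose series; inconclusive means about 50% or more but not retested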;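 further: bacteria grown 7 days with compound before Alamar blue readout; 0% = untreated bacteria and 100% = reference antibiotic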
An asterisk follows results filed as active; i = inactive; ? = inconclusive.

Start of the data: the first two records (preview)
SMILES | Mtb growth
O=S(=O)(c1ccc2oc3ccc(S(=O)(=O)N4CCCCCC4)cc3c2c1)N1CCCCCC1 | i
CCCOc1ccc(Cn2c(=O)oc3ccc(C)cc32)cc1OC | i

The listing, from the start:
SMILES | Mtb growth
O=S(=O)(c1ccc2oc3ccc(S(=O)(=O)N4CCCCCC4)cc3c2c1)N1CCCCCC1 | i
CCCOc1ccc(Cn2c(=O)oc3ccc(C)cc32)cc1OC | i
O=C(c1ccccc1)c1ccc(N2CCCC2)cc1 | 12%
COC(=O)c1ccccc1NC(=O)c1cc2nc(C3CC3)cc(C(F)(F)F)n2n1 | i
CCCOc1ccc(C(=O)NC(=S)Nc2ccc(C(=O)O)cc2)cc1 | 0.12µg/mL*
COc1ccc(COc2ccc3c(=O)c(-c4ccc(OC)cc4)c(C)oc3c2)cc1 | i
COCCN1C=C(C(=O)OC)C(c2cccc(O)c2)C(C(=O)OC)=C1 | i
COCc1nc(-c2ccc(Cl)cc2)no1 | i
CCc1ccccc1OCC(=O)NCc1ccco1 | i
Cc1ccc(O)c(NC(=O)c2nc3nc(C)cc(C(F)F)n3n2)c1 | i
OCc1ccc(-c2ccc(Br)c(Cl)c2)o1 | 1%
COc1ccc(C(=O)Nc2ccc(Br)cc2F)cc1 | i
O=C(Nc1ccc(Br)cc1)c1ccc(CSc2ncccn2)cc1 | i
CCC(c1ccccc1)c1nnc(NC(=O)OC)s1 (stereo not drawn) | i
O=C(Oc1ccccc1[N+](=O)[O-])c1sc2ccccc2c1Cl | i
CCS(=O)(=O)N1CCN(c2ccc([N+](=O)[O-])cc2)CC1 | 2%
CC(C)CN1C(=O)c2cccc3c([N+](=O)[O-])ccc(c23)C1=O | i
COc1ccc(-c2csc3nc(-c4cccc5ccccc45)oc(=O)c23)cc1OC | i
COC(=O)c1ccc(Cl)c(NC(=O)NC23CC4CC(CC(C4)C2)C3)c1 | 2%
COC(=O)Cc1c(C)c2ccc(OCC(=O)NC3CC3)cc2oc1=O | i
CC1(C)Cc2c(c(N3CCCC3)nc3sc4c(N5CCCCC5)ncnc4c23)CO1 | 24%
O=C(NCCN1CCOCC1)c1ccccn1 | i
CS(=O)(=O)c1ccc(N2CCOCC2)c(S(C)(=O)=O)c1 | i
CCOc1ccc(N2CC(C(=O)NC3CCCCC3)CC2=O)cc1 (stereo not drawn) | i
Cc1ccc(SCCC(=O)Nc2ccccc2F)cc1 | i
COc1cc(-c2noc(-c3ccc(C(C)(C)C)cc3)n2)cc(OC)c1OC | 46%
Cc1cc(C)cc(N2C(=O)CC(N(C(=O)c3ccco3)c3cc(C)cc(C)c3)C2=O)c1 (stereo not drawn) | i
COc1ccc(C)cc1NS(=O)(=O)c1ccc(NC(=O)Nc2ccccc2)cc1 | i
O=C(NNC(=S)Nc1ccccc1Cl)C(c1ccccc1)c1ccccc1 | i
O=C(NC(C(=O)NC1=NCCS1)C12CC3CC(CC(C3)C1)C2)c1ccc(Cl)cc1 (stereo not drawn) | i
Cc1ccc(-c2cc(C(=O)O)c3ccccc3n2)o1 | 2%
O=C(Cn1cnc2sc(-c3ccccc3)cc2c1=O)NCCc1ccccc1 | i
COc1ccc(C)cc1NCc1ccc(OC)c2ccccc12 | 6%
O=C(CC(c1ccc(Cl)c(Cl)c1)C1CCCCC1=O)c1ccccc1 (stereo not drawn) | i
CC(=O)c1cccc(NC(=S)N2c3ccccc3CC2C)c1 (stereo not drawn) | i
CCOc1cc(C=O)ccc1Oc1ccc([N+](=O)[O-])cn1 | 0%
Cc1ccc(CNC(=O)CSc2nc3ccc(NC(=O)COc4ccccc4)cc3s2)cc1 | 0%
Cc1ccc(O)c(NC(=S)NC(=O)c2ccc(OCc3ccccc3)cc2)c1 | 3%
O=C(Cc1coc2ccc3ccccc3c12)NCc1ccccc1 | 41%
Cc1cc(C)c(S(=O)(=O)NCc2ccccn2)cc1C | i
COc1ccc(C(=O)C(OC(=O)CCC(=O)Nc2ccccc2C(F)(F)F)c2ccccc2)cc1 (stereo not drawn) | i
Cn1c(=O)n(CC(=O)Nc2cccc(C(F)(F)F)c2)c2ccccc21 | i
O=C(CN(Cc1ccc(Cl)c(Cl)c1)S(=O)(=O)c1ccccc1)Nc1cccc([N+](=O)[O-])c1 | i
Cc1ccccc1OCCCn1c(C)c(C#N)c2ccccc21 | 5%
Cc1cccc(NC(=S)NC(=O)Cc2ccccc2)c1C | 1%
CCSc1ccccc1C(=O)Nc1ccc(S(=O)(=O)NC(C)=O)cc1 | i
COc1ccccc1NC(=O)CN(c1ccc(I)cc1)S(C)(=O)=O | i
Cc1cc(C=O)c(C)n1-c1ccncc1 | i
CCOc1cccc(C(=O)Nc2ccc(Cl)cc2C(F)(F)F)c1 | i
Cc1ccc(C(=O)NCCc2ccncc2)cc1 | 31%
COc1ccc(C2=CC(c3ccc(F)cc3)n3nnnc3N2)cc1 (stereo not drawn) | i
CC(C)(C)NCc1cc(Br)ccc1OCc1cccs1 | i
COc1ccc(OC)c(S(=O)(=O)n2c([N+](=O)[O-])cnc2C)c1 | i
CC12CCC3C(C1)C(C(=O)O2)C(=O)OC3(C)C (stereo not drawn) | i
Cc1sc(NC(=O)c2ccc(S(=O)(=O)N(C)C)cc2)nc1-c1ccccc1 | i
COc1ccc(CNc2ccc(Cl)c(Cl)c2)cc1OC | i
CC(C)(C)c1ccccc1NC(=O)CC1CCCCC1 | 1%
CCSc1ccccc1C(=O)N1CCc2ccccc2C1 | i
Cc1ccc(C(=O)NC(=S)Nc2cc(-c3nc4ncccc4o3)ccc2Cl)c(C)c1 | i
COc1ccc(C(=O)NC(=S)Nc2cccc(C(=O)O)c2C)cc1Br | i

Compounds listed so far with a COOH group:
SMILES | Mtb growth
CCCOc1ccc(C(=O)NC(=S)Nc2ccc(C(=O)O)cc2)cc1 | 0.12µg/mL*
Cc1ccc(-c2cc(C(=O)O)c3ccccc3n2)o1 | 2%
COc1ccc(C(=O)NC(=S)Nc2cccc(C(=O)O)c2C)cc1Br | i

Next section:
Structure	Mtb growth
COC(=O)c1ccc(NC(=O)CS(=O)(=O)c2ccccc2)cc1	i
O=C(Nc1ccc(Cl)cc1)NC1CCCCC1NC(=O)Nc1ccc(Cl)cc1 (stereo not drawn)	1%
COc1cc(C2NC(=O)NC(c3ccccc3)=C2C(=O)c2ccccc2)cc(Br)c1O (stereo not drawn)	i
COc1ccc2cc(C(C)=O)c(=O)oc2c1	i
CN(C(=O)COc1ccc(Br)cc1)C1(C)CCS(=O)(=O)C1 (stereo not drawn)	i
CCC(C(=O)Nc1nc(-c2ccc([N+](=O)[O-])cc2)cs1)c1ccccc1 (stereo not drawn)	i
CCc1cc(C(=O)COc2ccc(F)cc2)c(O)cc1O	i
CC(C)c1ccc2oc(-c3cccc(NC(=O)c4ccc(Br)o4)c3)nc2c1	0%
O=C(CC1(O)C(=O)N(Cc2ccccc2)c2ccccc21)c1ccccc1[N+](=O)[O-] (stereo not drawn)	3%
Cc1ccc2c(c1)c(-c1ccccc1)c(-c1ccccc1)n2CC(O)CN1C(=O)CNC1=O (stereo not drawn)	?
O=C(COc1ccc(F)cc1)Nc1cccc([N+](=O)[O-])c1	44%
CCCCC(=O)Nc1cccc(NC(=O)c2ccc(OCCC)cc2)c1	1%
CC(=O)c1ccc(NC(=O)c2cc(S(=O)(=O)N3CCOCC3)c(Cl)cc2Cl)cc1	i
Cc1cc2c(=O)n(C)c(SCc3ccccc3)nc2s1	i
Cc1ccc(CC(=O)Nc2cccc(F)c2)cc1	i
Cc1ccc(C)c(NC(=O)COc2ccc(C(C)C)c(C)c2)c1	6%
Cc1ccc(SCC(=O)Nc2ccc(Cl)c(C(F)(F)F)c2)cc1	i
CCN(CC)c1ccc(NC(=O)c2ccccc2O)cc1	4%
Cc1cc(C)c(NC(=O)C2CCN(S(=O)(=O)c3ccc(F)cc3)CC2)c(C)c1	17%
CCOC(=O)c1c(-c2ccc(Cl)cc2)csc1NC(=O)COc1ccccc1OC	0%

Reprinted at random: three entries already listed, in no set order.
Structure	Mtb growth
CC(=O)c1cccc(NC(=S)N2c3ccccc3CC2C)c1 (stereo not drawn)	i
CCC(c1ccccc1)c1nnc(NC(=O)OC)s1 (stereo not drawn)	i
O=C(CN(Cc1ccc(Cl)c(Cl)c1)S(=O)(=O)c1ccccc1)Nc1cccc([N+](=O)[O-])c1	i

(cont.)
Structure	Mtb growth
O=C(NC(=S)Nc1cc(C(F)(F)F)ccc1N1CCCC1)c1ccco1	49%
Cc1nnc(SCc2nnc(-c3ccccc3)o2)n1Cc1ccccc1	i
CC1CCN(C(=S)c2cn(Cc3ccccc3)c3ccccc23)CC1	7%
CCC(=O)Oc1cccc2ccc(/C=C/c3ccc4c(c3)OCO4)nc12	0.17µg/mL*
CCOc1ccc(-n2nc3ccc(NC(=S)NC(=O)c4ccc(C)c([N+](=O)[O-])c4)cc3n2)cc1	i
Cc1cccc(NC(=O)c2cc(-c3ccc(C)o3)nc3ccccc23)n1	i
CCn1c(SCC(=O)Nc2c(C)cc(I)cc2C)nnc1-c1cc2cccc(OC)c2o1	14%
CCCc1cc(=O)[nH]c(SCC(=O)Nc2ccccc2)n1	i
COc1ccc(Cl)cc1C(=O)NCc1cnn(C)c1C	i
COC(=O)c1oc2c(c1C)C(=O)CC(C)(C)C2	i
Cc1c(=O)n(OCc2ccc(C(C)(C)C)cc2)c2ccccc2[n+]1[O-]	i
CN1CCN(c2nc3c(c(=O)n(C)c(=O)n3C)n2Cc2cccc(Br)c2)CC1	i
CCN(CC)S(=O)(=O)c1cc(C(=O)Nc2nccs2)ccc1Br	i
COc1ccc(C(=O)NC(=S)Nc2ccc(C(=O)O)c(Cl)c2)cc1	i
Cc1cc(-c2cccnc2)c(C#N)c(SCc2cccc(F)c2)n1	i
COC(=O)c1ccc(NC(=O)CSc2nnc(Cc3ccc(OC)cc3)n2-c2ccccc2)cc1	i
CCCC(=O)Nc1ccc(C(=O)NCC(=O)OCC)cc1	i
COC(=O)c1cc(C)sc1NC(=S)N1CCN(c2ccccc2Cl)CC1	i
COc1cc(C(=O)NC2(C(F)(F)F)C(=O)Nc3c2c(=O)[nH]c(=O)n3-c2ccccc2)cc(OC)c1OC (stereo not drawn)	i
COc1cc2sc(N)nc2cc1Cl	i

Structures shown so far containing a tert-butyl group:
Structure	Mtb growth
COc1cc(-c2noc(-c3ccc(C(C)(C)C)cc3)n2)cc(OC)c1OC	46%
CC(C)(C)NCc1cc(Br)ccc1OCc1cccs1	i
CC(C)(C)c1ccccc1NC(=O)CC1CCCCC1	1%
Cc1c(=O)n(OCc2ccc(C(C)(C)C)cc2)c2ccccc2[n+]1[O-]	i

(listing goes on)
Structure	Mtb growth
COc1ccc(S(=O)(=O)N(CCc2ccccc2)CC(=O)N2CCCCCC2)cc1	1%
COc1ccc(OC)c(S(=O)(=O)Nc2ccccc2F)c1	i
OC12CC3CC(C1)CC(N1CCCC1)(C3)C2	i
CCc1cccc(CC)c1NC(=O)c1cccc(Br)c1	i
O=C(Nc1cccc2ccccc12)OCCn1nnnc1C1(N2CCOCC2)CCCCC1	i
CN1/C(=C/C2CC(=O)NC2=O)C(C)(C)c2ccccc21 (stereo not drawn)	i
COc1cccc(C2NC(=S)NC(c3ccccc3)=C2C(C)=O)c1 (stereo not drawn)	i
CCOc1cc(C(=O)Nc2cc(=O)n(C)c(=O)n2C)cc(OCC)c1OCC	i
COc1ccc(NC(=O)CSc2nnc(COc3ccc(C4CCCCC4)cc3)n2C)cc1	i
CC(NC(=O)c1ccccc1NC(=O)c1ccc(Cl)cc1Cl)c1ccccc1 (stereo not drawn)	3%
COc1ccc(CCNC(=S)NC2CCN(Cc3ccccc3)CC2)cc1OC	i
O=C(Cn1c(-c2ccccn2)nc2ccccc21)NCCN1CCOCC1	i
CCC1(C)Cc2c(sc3nnn(Cc4ccc(Cl)cc4Cl)c(=O)c23)CO1 (stereo not drawn)	4%
CSCCC(NC(=O)c1c(C)oc2c1CCCC2)C(=O)O (stereo not drawn)	i
CC(C)c1ccc(OCC(=O)Nc2cccc(F)c2)c(Br)c1	44%
O=C(NCC(F)(F)F)Nc1ccccn1	i
CCOc1cccc(C(=O)NC(=S)Nc2ccc(N3CCN(CC)CC3)cc2)c1	i
CN(C)c1ccc(C2C3=C(CCCC3=O)Nc3ccccc3N2C(=O)c2ccccc2)cc1 (stereo not drawn)	i
COc1ccccc1CCNCc1cccc(OC)c1OC	i
COC(=O)C1=C(C)NC(=O)C1(Nc1nc2ccc([N+](=O)[O-])cc2s1)C(F)(F)F (stereo not drawn)	i
COc1ccc(CCC(=O)NNC(=S)NCc2ccc(F)cc2)cc1	i
COC(=O)c1ccc(Oc2cc(C)nc(SC)n2)cc1	i
Cc1cccc(NC(=O)c2ccc3nc(-c4ccccc4)c(-c4ccccc4)nc3c2)n1	3%
CN(Cc1ccccc1)C(=O)C1CCN(S(=O)(=O)c2ccc(Br)cc2)CC1	i
Cc1ccc(C(=O)Oc2ccc3c(C)cc(=O)oc3c2)cc1C	i
CCOC(=O)c1cc(-c2ccccc2)sc1NC(=O)CCN1CCCCC1	6%
COC(=O)c1ccccc1NC(=O)COc1cc(C)c(Br)c(C)c1	i
COc1ccccc1NC(=O)COc1ccc(Cl)cc1C	i
Cc1ccc(S(=O)(=O)NCC(=O)Nc2ccc(Br)cc2F)cc1	i
Cc1ccc(/C=C/C(=O)O)cc1S(=O)(=O)NCCCC(=O)O	i
O=C(Nc1ccc(CN2CCCCC2)cc1)c1ccncc1	0%
c1csc(CSc2nnc3sc4ccccc4n23)c1	3%
CC1CC(C)(C)N(C=O)c2ccccc21 (stereo not drawn)	1%
O=C(Nc1cccnc1)C1c2ccccc2Oc2ccccc21	i
COCC(=O)NNC(=S)Nc1ccc(OC)cc1OC	i

These rows are one share of the data. The share of hits here may be higher or lower than overall.
